VACV E9 pol inh – blocks vaccinia virus processive DNA synthesis; in vitro processive DNA synthesis, absorbance read-out; hits give low values; some inactives read as strong as hits; normalized absorbance, % (test concentration not listed); hit rate 0.94% among 46,000; AID 493162;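 active means replicate mean up to 90% and picked by the depositor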;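 further: 100% = median of the test wells of a plate; 100 nL library stock went into each well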
Active calls of the source: *. An excerpt; count on the stated rates, not on these rows.

SMILES	VACV E9 pol inh
CCCn1c(=O)c2c(nc3n2CCCN3Cc2ccco2)n(C)c1=O	99.1
O=C(NCCOc1cccc(C(F)(F)F)c1)c1cccc(NC2=NC3CS(=O)(=O)CC3S2)c1 (stereo unspecified)	100.1
COc1ccc(Cl)cc1NC(=O)COC(=O)c1cc(F)c(F)cc1Cl	102.9
CN1CCC(=C2c3ccccc3Sc3ccccc32)CC1	96.6
Cc1ccc(S(=O)(=O)NC(=O)Oc2ccc(-c3csnn3)cc2)cc1	100.7
Cc1nc(N)c(C(=O)O)nc1C	99.9
COc1ccc(CCNCc2ccccc2)cc1	100.4
O=C(NO)c1ccc(C(F)(F)F)cc1	91.5
Clc1ccc(SCc2nc3ncccn3c2Br)cc1	103.4
CCC(=O)NC(CC)Cc1ccccc1 (stereo unspecified)	101.6
CC(=O)Oc1c(C)c(C)c2c(c1C)CCC(C)(CCCC(C)CCCC(C)CCCC(C)C)O2 (stereo unspecified)	98.7
COc1cccc(CNC(=O)CCS(=O)(=O)Cc2ccc(C)cc2)c1	105.5
O=C(Cn1ncc2c(=O)oc3ccccc3c21)Nc1nc2ccccc2s1	101.6
CC(=O)NC(=O)c1cc2ccccc2oc1=Nc1ccc(Cl)cc1	98.9
c1ccc(-n2ncc3c(N4CCCCC4)ncnc32)cc1	98.5
COC(=O)Cn1ncc2c3ccccc3n(Cc3cccc(Cl)c3)c2c1=O	102.9
CCC(Sc1ncccn1)C(=O)Nc1cc(C)on1 (stereo unspecified)	99.5
Cc1ccc(C(C)C)c(OC(=O)NC2(C(F)(F)F)Oc3ccc(Cl)cc3O2)c1 (stereo unspecified)	100.4
CCOc1ccc(N2C(=O)/C(=C/c3cccs3)C(=O)N(c3ccccc3)C2=S)cc1	90.8
CC(c1ccccc1)n1c(N)c(C#N)c2nc3ccccc3nc21 (stereo unspecified)	97.7
O=C1CC(C(=O)O)N=C(Nc2nc3ccccc3s2)N1 (stereo unspecified)	96.9
Cc1nc(NCCN2CCOCC2)c2sc3nc4c(cc3c2n1)COC(C)(C)C4	100.0
O=c1c(-c2ccn(-c3ccccc3)n2)c(O)c2ccccc2n1-c1ccccc1	100.1
Cc1ccc(-n2ncc3c(=O)[nH]c(SCC(=O)N4CCCc5ccccc54)nc32)cc1	97.4
CC(=O)Nc1nc2c(s1)C(=O)CC(C)(C)C2	84.9
The list goes on.
SMILES	VACV E9 pol inh
CC(C)CCNC(=O)c1cccn2c(=O)c3c4c(sc3nc12)CCCC4	101.5
c1ccc(CCn2c(COc3ccccc3)nc3ccccc32)cc1	100.4
Cc1cc(N2CCCC2)ccc1/C=C(/C#N)c1ccc(F)cc1	101.0
CSc1sc(C(=O)NN)cc1-c1nc(C)cs1	88.3
COc1ccc(-c2nn(-c3ccccc3)cc2/C=C\C(=O)N(C)C)cc1	102.0
O=C(Nc1nnc(-c2cccs2)o1)c1ccccc1	91.0
CCn1cc(C(=O)N2CCCC2)c(=O)c2cc(S(=O)(=O)N(C)C)ccc21	105.2
COc1ccccc1C1CCN(C(=O)c2cccs2)CC1	84.6
Cc1ccc(NC(=O)c2ccc(CSc3ncnc4nc[nH]c34)cc2)cc1	98.2
COc1cc(CNc2ccc3c(c2)OCCO3)ccc1OCC(N)=O	93.7
COc1ccc(/C=C2\CC/C(=C\c3ccc(C)cc3)C2=O)cc1	100.0
COc1cc(/C=N/n2cnc3c(sc(=S)n3C)c2=O)ccc1O	97.2
CCN1C(=O)/C(=C\c2ccsc2)SC1=S	100.0
C/C=C\C(=O)NCc1ccc2[nH]c3c(c2c1)CCCC3	98.6
O=C(CC1SC(=O)NC1=O)Nc1nccs1 (stereo unspecified)	90.6
CCc1ccc(NC(=O)CSc2nccn2-c2ccccc2)cc1	101.2
COC(=O)CCn1nc(-c2ccc(Cl)cc2)c2ccccc2c1=O	98.6
C=CCN1C(=O)C(=O)/C(=C(\O)c2ccccc2)C1c1ccccc1Cl (stereo unspecified)	101.7
CC(NC(=O)C(O)(c1ccccc1)c1ccccc1)C(=O)O (stereo unspecified)	99.2
COC(CNC(=O)/C=C1\Sc2ccccc2N(Cc2ccccc2F)C1=O)OC	103.7
CCc1cc2c(=O)c(-c3ccccc3)coc2cc1O	97.6
CCCN1CCC2(CC1)C(C#N)=C(S)NC(=O)C2C#N (stereo unspecified)	99.5
CC1=CS(=O)(=O)CC1Sc1nc2ccccc2[nH]1 (stereo unspecified)	99.8
COc1ccccc1NCC(=O)c1ccc(Cl)cc1	105.1
CCN(CC)CCSc1nc(O)c(C)c(=O)[nH]1	101.3

The last 8 records of the part before are carried over, then new ones follow:
SMILES	VACV E9 pol inh
C=CCN1C(=O)C(=O)/C(=C(\O)c2ccccc2)C1c1ccccc1Cl (stereo unspecified)	101.7
CC(NC(=O)C(O)(c1ccccc1)c1ccccc1)C(=O)O (stereo unspecified)	99.2
COC(CNC(=O)/C=C1\Sc2ccccc2N(Cc2ccccc2F)C1=O)OC	103.7
CCc1cc2c(=O)c(-c3ccccc3)coc2cc1O	97.6
CCCN1CCC2(CC1)C(C#N)=C(S)NC(=O)C2C#N (stereo unspecified)	99.5
CC1=CS(=O)(=O)CC1Sc1nc2ccccc2[nH]1 (stereo unspecified)	99.8
COc1ccccc1NCC(=O)c1ccc(Cl)cc1	105.1
CCN(CC)CCSc1nc(O)c(C)c(=O)[nH]1	101.3
C[C@@H]1CC[C@H]2[C@@H](C)C(=O)O[C@@H]3OC4(C)CC[C@@H]1[C@]32OO4	97.5
CCOC(=O)c1cnn2c(C)c(Cc3cccc(F)c3)c(C)nc12	113.9
O=C(Nc1ccc(-c2nnc3n2CCCCC3)cc1)c1ccco1	107.0
Cc1cc(C)c(C)c(Cn2cnc3ccccc32)c1C	99.6
CC(Cc1cccs1)N(Cc1ccc(Cl)cc1)C(=O)c1ccncc1 (stereo unspecified)	98.3
Cc1noc(C)c1CSc1ncnc2sc3c(c12)CCC3	99.1
CCC(=O)Nc1ccc2c(C)cc(C)nc2n1	99.4
C=CCn1c(NC(C)=O)c(C#N)c2nc3ccccc3nc21	105.9
OC(c1cccnc1)c1cccs1 (stereo unspecified)	100.1
CCOc1ccc(CC#N)cc1OCC	100.8
COc1ccccc1Oc1ncnc2sc(-c3ccccc3)cc12	100.8
C[C@@H]1CC2C3CCC4=CC(=O)C=C[C@]4(C)[C@@]3(F)[C@@H](O)C[C@]2(C)[C@@]1(O)C(=O)COP(=O)(O)O (stereo partly specified)	100.2
CSc1cccc(NC(=O)CSc2nc3ccccc3[nH]2)c1	99.9
CC(c1ccccc1)N1C(=O)c2ccccc2C1Nc1ccc(F)cc1 (stereo unspecified)	95.9
O/N=C\c1cn(-c2ccccc2)nc1-c1ccc(Br)cc1	94.8
O=C(NCC(=O)N1CCCCCC1)c1cccs1	106.0
CCC(=O)OC1(c2ccccc2)C(C)CN(C)CC1C (stereo unspecified)	94.9
Cc1c(Cl)cccc1NC(=S)N(C1CCCCC1)C(C)c1cccnc1 (stereo unspecified)	89.6
CN1N=C2c3ccccc3CCCC2C1c1ccc2c(c1)OCO2 (stereo unspecified)	100.6
COc1cccc(NC(=O)c2ccc(S(=O)(=O)N3CCCC3)cc2)c1	98.0
CC1SC2=NNC(c3ccc(Cl)cc3)=CN2C1=O (stereo unspecified)	100.2
COC(=O)c1ccccc1N=C(C)C1=C(O)c2ccccc2C1=O	100.2
O=C(/C=C\c1ccccc1)Nc1nnc(-c2ccc(Cl)cc2)s1	87.1
CC1=Nc2ccccc2N=C(NC(=O)CSC(=S)N2CCCCC2)C1c1ccccc1 (stereo unspecified)	100.7
COc1cc2c(cc1OC)C(C)N(C(=O)c1cc3c(C)cc(C)cc3[nH]1)CC2 (stereo unspecified)	96.1
Remaining list, next part:
SMILES	VACV E9 pol inh
NNc1nnc(-c2ccccc2)c2ccccc12	104.1
O=c1c2ccccc2nc2c3ccccc3c(N3CCOCC3)nn12	100.2
NC(=Nc1ccc(Cl)cc1)c1ccccc1	99.4
O=C(O)COc1cccc(Br)c1	105.8
COc1ccc(/C=C/C(=O)N2CCN=C2c2ccccc2)cc1OC	100.2
CC(C)(C)c1ccc(/C=N/n2cnnc2)cc1	88.8
O=C(/C=C/c1ccco1)Nc1ccc(Nc2ccccc2)cc1	109.4
CC(C)(C)c1cc(-c2cccs2)c(C#N)c(SCC(=O)Oc2ccccc2)n1	101.7
O=C(O)C1CCc2ccccc2O1 (stereo unspecified)	88.6
O=S(=O)(Nc1ccc(N2CCCCC2)cc1)c1ccc(-c2ccccn2)s1	107.5
CC(=O)NC(=O)NCc1ccccc1	90.5
CC(C)CCNC(=O)c1ccc(CS(=O)(=O)c2cccc(C(F)(F)F)c2)o1	86.6
CC(=O)N1CCC(N(CCN2CCOCC2)C(=O)Nc2ccccc2)CC1	105.7
CCOC(=O)c1c(-c2ccccc2)csc1/N=C/C1C(=O)CCCC1=O	100.3
Cc1c(S(=O)(=O)c2ccc(Cl)cc2)csc1C(=O)N(Cc1ccccc1)Cc1cccnc1	108.3
O=C(NCCO)c1c2c(nc3ccccc13)CCCC2	100.3
NS(=O)(=O)c1ccccc1C(=O)N1CCN(C(=O)c2ccccc2S(N)(=O)=O)CC1	101.5
NC(=O)NCCc1ccccc1	93.1
O=C(CCNc1n[nH]c(=O)[nH]c1=O)NCc1ccco1	94.6
CCn1c(C(=O)N2CCCC(C(=O)NCCCc3ccccc3)C2)cc2sccc21 (stereo unspecified)	97.4
Clc1cccc(CSc2nnc3ccccn23)c1	94.1
O=S(=O)(CCN1CCC(n2cccc2)CC1)c1ccc(F)cc1	81.9
O=P(O)(CN1CCCCCC1)C1Cc2ccccc2C1	84.6
CC(C)(C)NC(=O)c1cccc(NC(=O)Cc2cccs2)c1	96.9
Cc1n[nH]c(C)c1S(=O)(=O)N1CCC2(CC1)OCCO2	96.3

Single values from the entries so far.
NS(=O)(=O)c1ccccc1C(=O)N1CCN(C(=O)c2ccccc2S(N)(=O)=O)CC1 – VACV E9 pol inh = 101.5
CC(C)(C)c1ccc(/C=N/n2cnnc2)cc1 – VACV E9 pol inh = 88.8

Sorted by heavy-atom count (highest first): some entries from above
SMILES	VACV E9 pol inh
O=S(=O)(Nc1ccc(N2CCCCC2)cc1)c1ccc(-c2ccccn2)s1	107.5
c1ccc(CCn2c(COc3ccccc3)nc3ccccc32)cc1	100.4
COc1ccccc1Oc1ncnc2sc(-c3ccccc3)cc12	100.8
Cc1nc(N)c(C(=O)O)nc1C	99.9

The listing continues.
SMILES	VACV E9 pol inh
CN1C(=O)C(C(=O)NC(C)(C)C)C2CC1(C)Oc1ccccc12 (stereo unspecified)	99.5
COc1ccccc1Nc1c2c(nc3ccc(NC(=O)COc4cccc(C)c4)cc13)CCCC2	106.0
COc1ccc(Br)cc1C1CC(=O)C(C)C(c2cc(Br)ccc2OC)N1 (stereo unspecified)	88.3
S=C(Nc1ccc(N2CCOCC2)nc1)Nc1cc(Cl)ccc1Cl	92.5
CCC1CCCCN1C(=O)c1ccc(F)cc1 (stereo unspecified)	97.3
CCC(Sc1nncn1C)C(=O)Nc1ccc(OC(F)(F)F)cc1 (stereo unspecified)	86.4
Cc1nn(C(C)(C)C)c(NC(=O)c2ccccc2)c1C#N	101.8
COc1cc2c(cc1OC)-c1nnc(C)n1C(C)(C)C2	99.1
CN1CCN(C(=S)c2cn(Cc3ccc(F)cc3)c3ccccc23)CC1	100.4
COc1ccc(/C=C/C(=O)/C=C/c2ccc(OC)cc2)cc1	100.8
COC(=O)NC(=Nc1ccc(OC)cc1)C(F)(F)F	106.8
O=C(CSc1nc2c(c(=O)n1-c1ccc(Cl)cc1)SCC2)Nc1nccs1	93.6
BrCCOC1OCCOC1OCCBr (stereo unspecified)	101.5
CC1CC(C)CN(C(=O)Cn2c(=O)n(CCCC(=O)NCc3ccco3)c(=O)c3sccc32)C1 (stereo unspecified)	99.5
Cc1cc(N2CCOCC2)c2c(N)c(C)cc(C)c2n1	100.6
O=C1CN=C(c2ccccc2Cl)c2cc([N+](=O)[O-])ccc2N1	99.5
O=C(CC(=O)c1ccccc1O)c1ccccc1	100.8
COc1ccccc1OCC(=O)NCCC1=CCCCC1	89.4
Cc1cc(C)n2cc(CN3CCOCC3)nc2n1	90.8
CCNC1(c2cccc(Cl)c2)CCC1	101.0
CCNC(=S)N1CCc2cc(OC)c(OC)cc2C1COc1ccc2c(C)cc(=O)oc2c1 (stereo unspecified)	94.1
COc1ccc(C(=O)Nc2ccc(-n3nncc3C(C)(C)C)cc2)cc1	100.3
CC(=O)Nc1ccc2nc(C)sc2c1	96.5
O=C(NCc1n[nH]c(=S)n1-c1ccccc1)c1ccccc1	100.0
CCOC(=O)C1CCN(c2c(C(=O)c3ccccc3)cnc3ccc(CC)cc23)CC1	111.7
(cont.)
SMILES	VACV E9 pol inh
CN1CCN(C(=O)c2cc(C(C)(C)C)cc(C(C)(C)C)c2)CC1	98.2
C=CCN1C(C(=O)c2ccccc2)=C(OC(=O)c2ccccc2)c2ccccc2S1(=O)=O	100.2
Cc1ccc(S(C)(=O)=NC(=O)NC(=O)c2c(Cl)cccc2Cl)cc1 (stereo unspecified)	95.4
O=C(Nc1ccccc1)n1nnc(C2CN(Cc3ccccc3)CN(Cc3ccccc3)C2)n1	108.9
C=C1SC(Nc2c(CC)cccc2CC)=NC1(C)C	97.3
COc1ccc(Cn2cnc3c2c(=O)n(C)c(=O)n3C)cc1	105.8
O=C(NC1CCCCC1)n1c(=O)oc2ccc(Cl)cc21	100.1
CCOc1ccccc1NC(=O)c1ccc(C)cc1	100.4
Cc1cc(-c2ccccc2)nc(SCc2ccccc2)c1C#N	99.1
O=C(CSc1cccc[n+]1[O-])c1cc2ccccc2o1	99.3
CCOc1ccc2[nH]c(=O)c(Cc3ccccc3)c(O)c2c1	108.1
CN(C(=O)COC(=O)c1ccc(Cl)c(N)c1)C1CCCCC1	98.4
CSc1ncc(F)c(N(CCO)CCO)n1	100.2
O=C(COC(=O)c1cccc(C(F)(F)F)c1)NCc1ccccc1	99.5
Cc1ccc(-c2nnc(-c3cc(C(=O)NN)c(C)nc3C)o2)cc1	99.9
COC(=O)c1scc2c(SCc3ccccc3)cc(C(F)(F)F)nc12	94.8
Cc1ccc(-c2nc(Nc3cccc(C(F)(F)F)c3)sc2CC(=O)O)cc1	82.9
CS(=O)(=O)Nc1ccc2oc3ncccc3c(=O)c2c1	99.2
C(=C\C1Nc2ccccc2-c2nc3ccccc3n21)/c1ccccc1 (stereo unspecified)	102.6
C[n+]1cc(C(=O)NCCC[N+]2(C)CCCC2)ccc1/C=N/O	99.6
C=CCSc1nc2c(c(-c3ccc(C)o3)c1C#N)CCCC2	99.9

High-throughput results: PubChem, ICCB-Longwood Screening Facility, Harvard Medical School
